# Yeast UUG start: modulators of start codon recognition fidelity in yeast; S. cerevisiae UUG-firefly luciferase reporter, luminescence/redox ratio; activity score, % at 18.7 µM; actives 0.13% (n = 350,000);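 active means replicate mean at a twofold rise or more, about +100% in these data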;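 further: firefly luciferase made from a UUG start codon reports start codon fidelity; reporter light over untreated wells divided by growth signal over untreated wells; some hits fall short of that in this replicate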
# Env fusion inh: HIV envelope-mediated fusion inhibition; actives 1.1% (n = 360,000); HeLa-JRFL Env/CEM21 cell fusion, luciferase; inhibition, % at 12.3 µM; AID 651610;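 active means mean replicate inhibition score of at least 50 and every replicate individually at or above 50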;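 further: 0% = plate neutral controls and 100% = maraviroc near 300 nM; one replicate is shown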
# Active calls of the source: *; & = joins results of further samples; [ ] = another dose, or the depositor's remark. The list is partial, so the mix of outcomes need not match the whole.
# Below each SMILES: Env fusion inh	Yeast UUG start
C[C@@H]1CN([C@@H](C)CO)C(=O)Cc2cc(NC(=O)Nc3ccccc3)ccc2O[C@@H]1CN(C)C(=O)Nc1ccc(F)cc1
    19[16.7 µM]	-4
C[C@H]1CCCCO[C@@H](CN(C)Cc2ccc3c(c2)OCO3)[C@@H](C)CN([C@@H](C)CO)C(=O)c2cc(NC(=O)Nc3ccc4c(c3)OCO4)ccc2O1
    84*[16.7 µM]	9
C[C@@H]1CN([C@@H](C)CO)C(=O)Cc2cc(NC(=O)Nc3ccc4c(c3)OCO4)ccc2O[C@H]1CN(C)Cc1ccc(Oc2ccccc2)cc1
    36[16.7 µM]	8
Cc1ccc(S(=O)(=O)N(C)C[C@H]2OCCCC[C@@H](C)Oc3ccc(NC(=O)Nc4ccc(C(F)(F)F)cc4)cc3C(=O)N([C@@H](C)CO)C[C@@H]2C)cc1
    17[16.7 µM]	-18
C/C=C/c1cnc2c(c1)C(=O)N([C@H](C)CO)C[C@@H](C)[C@@H](CN(C)Cc1cncnc1)O2
    -7[16.7 µM]	-15
CC(C)NC(=O)Nc1ccc2c(c1)C(=O)N([C@@H](C)CO)C[C@@H](C)[C@H](CN(C)S(=O)(=O)c1cccs1)OCCCC[C@@H](C)O2
    -15[16.7 µM]	2
COc1ccc(NC(=O)N(C)C[C@@H]2Oc3ccc(NS(C)(=O)=O)cc3CC(=O)N([C@H](C)CO)C[C@@H]2C)cc1
    4[16.7 µM]	-26
C[C@H](CO)N1C[C@H](C)[C@H](CN(C)S(=O)(=O)c2cccs2)OCCCC[C@H](C)Oc2ccc(NC(=O)Nc3ccccc3)cc2C1=O
    -17[16.7 µM]	-7
C[C@@H]1CN([C@H](C)CO)C(=O)c2cccc(NC(=O)Nc3ccccc3)c2O[C@H]1CN(C)Cc1ccc(Oc2ccccc2)cc1
    5[16.7 µM]	-3
C[C@@H]1CN([C@@H](C)CO)C(=O)c2cc(NS(C)(=O)=O)ccc2O[C@@H](C)CCCCO[C@@H]1CN(C)Cc1ccc(C(=O)O)cc1
    12[16.7 µM]	8
O=C(C[C@@H]1C=C[C@@H](NC(=O)c2ccc(F)cc2)[C@@H](CO)O1)NCCc1ccncc1
    -21[16.7 µM]	-15
CO[C@@H]1CN(C)C(=O)c2cc(NS(=O)(=O)c3ccc(Cl)cc3)ccc2OC[C@@H](C)N(C)C[C@@H]1C
    -9[16.7 µM]	-12
O=C(C[C@@H]1C=C[C@H](NC(=O)Nc2ccc3c(c2)OCO3)[C@H](CO)O1)NCc1ccc2c(c1)OCO2
    -8[16.7 µM]	4
C[C@H](CO)N1C[C@H](C)[C@H](CN(C)C(=O)NC2CCCCC2)Oc2c(NC(=O)c3ccncc3)cccc2C1=O
    10[16.7 µM]	-3
COc1cccc(C(=O)Nc2ccc3c(c2)C(=O)N(C)[C@H]2CC[C@H](CC(=O)NCC4CC4)O[C@H]2CO3)c1
    9[16.7 µM]	3
C[C@@H]1CCCCO[C@@H](CN(C)C(=O)Nc2ccc(F)cc2)[C@@H](C)CN([C@H](C)CO)C(=O)c2cc(NS(=O)(=O)c3ccccc3)ccc2O1
    7[16.7 µM]	-10
C[C@H]1CN([C@@H](C)CO)C(=O)Cc2cc(NC(=O)CCN3CCOCC3)ccc2O[C@@H]1CN(C)S(=O)(=O)c1cn(C)cn1
    -20[16.7 µM]	-3
C[C@@H]1CN([C@@H](C)CO)S(=O)(=O)c2ccc(C#CCN(C)C)cc2O[C@@H]1CN(C)C(=O)C1CC1
    4[16.7 µM]	9
C[C@@H]1CCCCO[C@H](CN(C)CC2CCCCC2)[C@@H](C)CN([C@H](C)CO)C(=O)c2cc(NC(=O)Nc3ccc4c(c3)OCO4)ccc2O1
    -9[16.7 µM]	-6
Cc1ccc(S(=O)(=O)N(C)C[C@@H]2Oc3c(NS(C)(=O)=O)cccc3C(=O)N([C@@H](C)CO)C[C@@H]2C)cc1
    -8[16.7 µM]	-6
C[C@@H]1CN([C@H](C)CO)C(=O)c2cccc(NS(=O)(=O)c3ccc(Cl)cc3)c2O[C@@H]1CN(C)S(=O)(=O)c1ccccc1
    45[16.7 µM]	-10
C[C@@H]1CN([C@H](C)CO)C(=O)c2cc(N(C)C)ccc2O[C@H]1CN(C)Cc1ccc2c(c1)OCO2
    -10[16.7 µM]	-15
CC(C)NC(=O)N(C)C[C@@H]1Oc2c(NS(=O)(=O)c3ccc(Cl)cc3)cccc2C(=O)N([C@@H](C)CO)C[C@@H]1C
    -21[16.7 µM]	8
Cc1noc(C)c1NC(=O)Nc1ccc2c(c1)C(=O)N([C@H](C)CO)C[C@H](C)[C@H](CN(C)Cc1ccc(C(=O)O)cc1)OCCCC[C@H](C)O2
    -29[16.7 µM]	27
CCCN(C)C[C@@H]1Oc2ncc(C#CCN(C)C)cc2C(=O)N([C@H](C)CO)C[C@@H]1C
    -3&-6[16.7 µM]	10&1
C[C@@H]1CN([C@H](C)CO)C(=O)c2cc(/C=C/c3ccccc3)cnc2O[C@@H]1CN(C)C(=O)c1cccc(F)c1
    14[16.7 µM]	19
C[C@@H]1CN([C@@H](C)CO)C(=O)c2cccc(NS(=O)(=O)c3ccc(F)cc3)c2O[C@@H]1CN(C)S(=O)(=O)c1ccccc1
    35[16.7 µM]	-8
C[C@@H]1CN([C@H](C)CO)C(=O)c2cccc(NC(=O)C3CC3)c2O[C@H]1CN(C)Cc1ccc(Oc2ccccc2)cc1
    15[16.7 µM]	1
C[C@@H]1CN([C@@H](C)CO)S(=O)(=O)c2ccc(-c3cccnc3)cc2O[C@H]1CN(C)Cc1ccccn1
    -4[16.7 µM]	-14
O=C(C[C@@H]1C=C[C@H](NS(=O)(=O)c2ccc(F)cc2)[C@H](CO)O1)N1CCc2ccccc2C1
    1[16.7 µM]	-20
C[C@H]1CN([C@@H](C)CO)C(=O)Cc2cc(NC(=O)C3CC3)ccc2O[C@H]1CN(C)S(C)(=O)=O
    -11[16.7 µM]	-13
COc1ccccc1S(=O)(=O)Nc1ccc2c(c1)OC[C@@H](C)NC[C@H](C)[C@H](OC)CN(C)C2=O
    7[16.7 µM]	-12
C[C@@H]1CN([C@H](C)CO)C(=O)c2cc(NC(=O)Nc3ccc(F)cc3)ccc2O[C@@H]1CN(C)Cc1ccc(C(=O)Nc2ccccc2N)cc1
    20[16.7 µM]	1
C[C@H](CO)N1C[C@H](C)[C@@H](CN(C)C(=O)Nc2ccc(C(F)(F)F)cc2)Oc2c(NC(=O)C3CCOCC3)cccc2C1=O
    8[16.7 µM]	-5
Cc1noc(C)c1S(=O)(=O)Nc1ccc2c(c1)CC(=O)N([C@H](C)CO)C[C@@H](C)[C@H](CN(C)Cc1ccc(C(F)(F)F)cc1)O2
    8[16.7 µM]	14
C[C@H](CO)N1C[C@H](C)[C@H](CN(C)C)Oc2ncc(-c3ccncc3)cc2C1=O
    -23[16.7 µM]	0
C[C@H](CO)N1C[C@H](C)[C@H](CN(C)S(=O)(=O)c2cn(C)cn2)Oc2c(NC(=O)Nc3cccc4ccccc34)cccc2C1=O
    -3[16.7 µM]	18
CCC(=O)N1C[C@@H](O)COC[C@H]2O[C@H](CC(=O)NCC3CCCCC3)CC[C@@H]21
    -3[16.7 µM]	-6
CO[C@@H]1CN(C)C(=O)c2ccc(NC(=O)NC(C)C)cc2OC[C@@H](C)N(C(=O)CN(C)C)C[C@@H]1C
    -3[16.7 µM]	4
O=C(C[C@@H]1C[C@H]2c3cc(NC(=O)CC4CC4)ccc3O[C@H]2[C@H](CO)O1)NCCN1CCCCC1
    -21[16.7 µM]	-4
CCCNC(=O)C[C@H]1CC[C@@H]2[C@@H](COc3ccc(NC(=O)Nc4cccc(C)c4)cc3C(=O)N2C)O1
    28[16.7 µM]	3
C[C@H]1CN([C@@H](C)CO)C(=O)c2cc(C#CCc3ccccc3)cnc2O[C@H]1CN(C)Cc1cccc(C(=O)O)c1
    1[16.7 µM]	6
C[C@@H]1CN([C@H](C)CO)C(=O)c2cc(C#CC3CCCC3)cnc2O[C@H]1CN(C)C(=O)Nc1ccccc1
    -7[16.7 µM]	5
O=C(N[C@H]1CC[C@@H](CCNS(=O)(=O)c2cccc(Cl)c2)O[C@@H]1CO)c1ccncc1
    5[16.7 µM]	-6
C[C@H]1CN([C@@H](C)CO)C(=O)c2cc(NC(=O)c3ccncc3)ccc2O[C@H]1CN(C)S(C)(=O)=O
    -8[16.7 µM]	-2
CNC(=O)C[C@H]1CC[C@@H]2[C@@H](COc3ccc(NC(=O)c4ccccc4F)cc3C(=O)N2C)O1
    -9[16.7 µM]	11
N[C@H]1CC[C@H](CCn2cc(C3CCCCC3)nn2)O[C@@H]1CO
    5[16.7 µM]	-12
C[C@H](CO)N1C[C@H](C)[C@@H](CN(C)CC2CCCCC2)OCCCC[C@H](C)Oc2ccc(NS(=O)(=O)c3ccc(F)cc3)cc2C1=O
    23[16.7 µM]	22
CO[C@H]1CN(C)C(=O)c2ccc(NS(=O)(=O)c3ccccc3Cl)cc2OC[C@@H](C)NC[C@@H]1C
    9[16.7 µM]	-2
C[C@@H]1CN([C@H](C)CO)C(=O)Cc2cc(NS(=O)(=O)c3ccc(F)cc3)ccc2O[C@@H]1CN(C)Cc1ccccc1
    -5[16.7 µM]	-3
CCC(=O)Nc1ccc2c(c1)C(=O)N(C)C[C@H](OC)[C@H](C)CN(C(=O)c1ccccc1F)[C@@H](C)CO2
    9[16.7 µM]	-10
O=C(C[C@@H]1CC[C@H](NC(=O)Nc2cc(F)ccc2F)[C@H](CO)O1)NCCCN1CCOCC1
    -27[16.7 µM]	-10
COc1cccc(NC(=O)N(C)C[C@@H]2Oc3ncc(C#Cc4cccnc4)cc3C(=O)N([C@@H](C)CO)C[C@H]2C)c1
    9[16.7 µM]	-2
C[C@H](CO)N1C[C@H](C)[C@H](CN(C)Cc2ccccc2)Oc2c(NS(=O)(=O)c3ccc(Cl)cc3)cccc2C1=O
    -13[16.7 µM]	0
COc1ccc(NC(=O)Nc2ccc3c(c2)C(=O)N([C@@H](C)CO)C[C@@H](C)[C@H](CN(C)C(=O)CCCN(C)C)OCCCC[C@H](C)O3)cc1
    -5[16.7 µM]	19
C[C@@H]1CN([C@H](C)CO)C(=O)Cc2cc(NC(=O)CCC(F)(F)F)ccc2O[C@@H]1CN(C)Cc1ccc(Oc2ccccc2)cc1
    -51[16.7 µM]	-4
C[C@@H]1CCCCO[C@@H](CN(C)C(=O)CCC(F)(F)F)[C@H](C)CN([C@@H](C)CO)C(=O)c2cc(NS(=O)(=O)c3cn(C)cn3)ccc2O1
    -5[16.7 µM]	-15
COc1ccc(NC(=O)N(C)C[C@@H]2OCCCC[C@@H](C)Oc3ccc(NC(=O)Nc4ccc5c(c4)OCO5)cc3C(=O)N([C@@H](C)CO)C[C@H]2C)cc1
    -11[16.7 µM]	10
C[C@@H]1CN([C@H](C)CO)C(=O)c2cc(NC(=O)NC3CCCCC3)ccc2O[C@@H](C)CCCCO[C@@H]1CN(C)C(=O)Nc1ccccc1
    -5[16.7 µM]	2
C[C@@H]1CCCCO[C@H](CN(C)CC2CC2)[C@H](C)CN([C@@H](C)CO)C(=O)c2cc(NC(=O)Nc3ccc(C(F)(F)F)cc3)ccc2O1
    -16[16.7 µM]	34

# (listing goes on)
# Below each SMILES: Env fusion inh	Yeast UUG start
Cc1noc(C)c1NC(=O)N(C)C[C@@H]1Oc2ccc(NC(=O)Nc3ccc(F)cc3)cc2CC(=O)N([C@H](C)CO)C[C@@H]1C
    -2[16.7 µM]	14
CCCN(C)C[C@H]1Oc2cc(-c3ccc(OC)cc3)ccc2S(=O)(=O)N([C@H](C)CO)C[C@H]1C
    6[16.7 µM]	3
C[C@@H]1CCCCO[C@H](CN(C)CC2CCCCC2)[C@@H](C)CN([C@H](C)CO)C(=O)c2cc(NS(=O)(=O)c3ccc(F)cc3)ccc2O1
    -4[16.7 µM]	-2
C[C@H]1CN([C@@H](C)CO)C(=O)c2cc(NC(=O)C3CCCCC3)ccc2O[C@H]1CN(C)Cc1ccc(Oc2ccccc2)cc1
    7[16.7 µM]	7
COCCNC(=O)C[C@H]1C[C@H]2c3cc(NS(C)(=O)=O)ccc3O[C@H]2[C@H](CO)O1
    -4[16.7 µM]	13
CNC[C@H]1OCCCC[C@H](C)Oc2ccc(NS(=O)(=O)c3c(C)noc3C)cc2C(=O)N([C@H](C)CO)C[C@@H]1C
    4[16.7 µM]	-2

# Complete entries as entered above. Order of screens: Env fusion inh	Yeast UUG start
# Listed for C[C@H](CO)N1C[C@H](C)[C@H](CN(C)S(=O)(=O)c2cccs2)OCCCC[C@H](C)Oc2ccc(NC(=O)Nc3ccccc3)cc2C1=O : -17[16.7 µM]	-7
# Listed for O=C(N[C@H]1CC[C@@H](CCNS(=O)(=O)c2cccc(Cl)c2)O[C@@H]1CO)c1ccncc1 : 5[16.7 µM]	-6
# Listed for COc1ccc(NC(=O)N(C)C[C@@H]2OCCCC[C@@H](C)Oc3ccc(NC(=O)Nc4ccc5c(c4)OCO5)cc3C(=O)N([C@@H](C)CO)C[C@H]2C)cc1 : -11[16.7 µM]	10

# Another view of part of the listing above.
Env fusion inh,Yeast UUG start,mol
-2[16.7 µM],14,Cc1noc(C)c1NC(=O)N(C)C[C@@H]1Oc2ccc(NC(=O)Nc3ccc(F)cc3)cc2CC(=O)N([C@H](C)CO)C[C@@H]1C
-4[16.7 µM],-2,C[C@@H]1CCCCO[C@H](CN(C)CC2CCCCC2)[C@@H](C)CN([C@H](C)CO)C(=O)c2cc(NS(=O)(=O)c3ccc(F)cc3)ccc2O1
-4[16.7 µM],13,COCCNC(=O)C[C@H]1C[C@H]2c3cc(NS(C)(=O)=O)ccc3O[C@H]2[C@H](CO)O1

# Screening data from PubChem.
